GIRK2 act: activators of human GIRK2 potassium channels; P48051; HEK293-GIRK2 thallium flux, Thallos fluorescence; calls only for hits at 25 µM; 63,000 compounds, 0.05% hits; AID 1259325;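 active = among the strongest 0.2% of first-round signals and kept after retests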;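 note: first round at about 10 µM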
Target sequence (P48051 whole entry, looked up): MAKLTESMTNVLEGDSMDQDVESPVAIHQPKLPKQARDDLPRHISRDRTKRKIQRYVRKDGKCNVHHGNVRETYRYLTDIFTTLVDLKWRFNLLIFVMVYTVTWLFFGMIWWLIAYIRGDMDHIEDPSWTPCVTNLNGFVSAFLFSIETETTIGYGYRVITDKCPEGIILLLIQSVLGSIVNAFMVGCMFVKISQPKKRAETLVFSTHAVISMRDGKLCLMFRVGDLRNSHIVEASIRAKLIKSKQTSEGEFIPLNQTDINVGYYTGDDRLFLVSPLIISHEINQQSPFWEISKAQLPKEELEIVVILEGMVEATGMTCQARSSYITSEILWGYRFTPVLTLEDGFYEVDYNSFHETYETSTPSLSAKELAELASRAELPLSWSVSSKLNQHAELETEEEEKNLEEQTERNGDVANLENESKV
Calls only; i = inactive.

compound | GIRK2 act
CCOc1ccccc1C(=O)Nc1ccc(-n2nnn(C)c2=O)cc1 | i
CS(=O)(=O)N1CCC(C(=O)N2CCCC(c3nnc(-c4cccs4)o3)C2)CC1 (centres undefined) | i
CCCCS(=O)(=O)N1CCN(Cc2c(C)noc2C)CC1 | i
COc1ccc(CNC(=O)c2nnn(-c3ccc(Cl)cc3)c2-c2cccnc2)cc1 | i
CCOC(=O)c1cnn2ccc(NC(=O)c3c(OCC)ccc4ccccc34)cc12 | i
CCC(C)n1c(C)cn2c3c(=O)n(Cc4ccccc4C)c(=O)n(C)c3nc12 (centres undefined) | i
O=C(c1cnc2ccccc2n1)N1CCN(CCn2ccnc2-c2ccccc2)CC1 | i
COC(=O)c1ccc(NC(=O)Cn2cccc(S(=O)(=O)N3CCCC3)c2=O)cc1 | i
O=C(Cc1ccc(NS(=O)(=O)CCN2C(=O)CCCC2=O)cc1)NCc1cccs1 | i
CC(C)(C)c1ccc(C(=O)N2CCC(CSC3=NCCS3)CC2)cc1 | i
O=S(=O)(Cc1ccccc1)N1CCOC2(CCOCC2)C1 | i
Cc1ccc(-c2nnc(NC(=O)CN3C(=O)CCC3=O)o2)c(C)c1 | i
Cc1ccc(-c2nc3c(c(=O)n2CC(=O)NCC2CCCO2)CCN(Cc2ccccc2)C3)cc1 (centres undefined) | i
CCOc1ccc(S(=O)(=O)NCCOC)c(C)c1C | i
CSCCC(C)(O)CNC(=O)C(=O)Nc1ccc2c(c1)N(C(=O)C(C)C)CCC2 (centres undefined) | i
CC(=O)c1c(Cc2ccccc2Cl)c[nH]c1C | i
COC(=O)c1cc(-c2ccc(C)cc2)n(-c2ccc(S(=O)(=O)N(C)C)cc2)n1 | i
O=C(NCc1nc2ccccc2[nH]1)C1CCCN(Cc2nc(-c3cccs3)no2)C1 (centres undefined) | i
O=C(NCC1CCN(c2ncccn2)CC1)C(=O)NCC(F)(F)F | i
Cc1ccc(N2CC(C)Cn3c2nc2c3c(=O)n(CC(=O)c3ccccc3)c(=O)n2C)cc1 (centres undefined) | i
O=C(NC1(c2nc(-c3ccncc3)no2)CCCCC1)C1COc2ccccc2O1 (centres undefined) | i
NS(=O)(=O)c1ccc(CNC(=O)c2csc(Nc3ncccn3)n2)cc1 | i
O=C(CN1CCN(Cc2nc(-c3cccs3)cs2)CC1)Nc1ccccc1C(F)(F)F | i
CC(Oc1ccccc1)C(=O)N1CC(c2nc(-c3ccco3)no2)C1 (centres undefined) | i
COc1cc(C2CC(c3cccc(O)c3)=NN2C(C)=O)cc(OC)c1OC (centres undefined) | i
Cc1noc(-c2ccc(=O)n(Cc3ccccc3C#N)c2)n1 | i
O=C(NCCC(O)c1ccc2c(c1)OCO2)Nc1cccs1 (centres undefined) | i
COC(=O)c1ccc(NC(=O)c2c(-c3ccccc3Cl)noc2C)cc1 | i
Cn1c(C2CCCN(S(C)(=O)=O)C2)nn(CC(=O)N2CCCc3ccccc32)c1=O (centres undefined) | i
Cc1ccc(NC(=O)CSc2nccn2-c2ccc(C(=O)NCc3ccc(C)o3)cc2)c(C)c1 | i

Structures from the list above containing a CF3 group, in the order listed:
compound | GIRK2 act
O=C(NCC1CCN(c2ncccn2)CC1)C(=O)NCC(F)(F)F | i
O=C(CN1CCN(Cc2nc(-c3cccs3)cs2)CC1)Nc1ccccc1C(F)(F)F | i

Continued.
compound | GIRK2 act
COc1ccc(NC(=O)CCn2cnc3c([nH]c4ccccc43)c2=O)cc1 | i
O=C1CSC(=O)N1CCNc1ccc(Br)cc1 | i
Cn1cc(C(=O)NCC2CCS(=O)(=O)C2)nn1 (centres undefined) | i
O=C(/C=C/c1ccccc1)Nc1ccc2c(c1)C(=O)NCC2 | i
O=C(NCCN1CCN(C(=O)c2ccc(F)cc2F)CC1)c1ccsc1 | i
CCCc1cc(SCC(=O)Nc2ccccc2C(F)(F)F)ncn1 | i
COc1ccc(C)cc1S(=O)(=O)NCC1CCN(C)CC1 | i
COc1ccccc1-n1c(-c2ccccc2)cn2c3c(=O)n(CCN4CCCCC4)c(=O)n(C)c3nc12 | i
C=C(C)C1CC[C@]2(C(=O)O)CC[C@]3(C(=O)O)[C@H](CCC4[C@@]5(C)CC[C@H](O)C(C)(C)C5CC[C@]43C)C12 (some centres undefined) | i
CC(C)(C)c1cc(NC(=O)c2ccc(Cn3ccnc3)cc2)on1 | i
CS(=O)(=O)N1CCN(C(=O)CN2CCN(c3ccccc3F)C2=O)CC1 | i
O=C(NCC1CCCCC1)c1nnn(-c2ccc(Br)cc2)n1 | i
CC(=C\c1ccccc1)/C=C(\C#N)c1nc(-c2cccc([N+](=O)[O-])c2)cs1 | i
O=C(NCC1(O)CCOc2ccccc21)c1ccc(OC(F)(F)F)cc1 (centres undefined) | i
CCC(C)n1c(C)c(C)n2c3c(=O)n(CCC(=O)OC)c(=O)n(C)c3nc12 (centres undefined) | i
O=C(Nc1ccc(-n2cnnc2)cc1)C1=Cc2ccccc2OC=C1 | i
COc1ccc(-n2nnc(C(=O)N3CCN(c4ccccc4Cl)CC3)n2)cc1 | i
Cc1nc(-c2cccs2)sc1CNC(=O)NCCOc1ccccc1 | i
COc1ccc(CC(=O)NCC2(O)CCc3ccccc3C2)cc1OC (centres undefined) | i
CCOC(=O)c1sc(NC(=O)Nc2ccccc2C(F)(F)F)nc1C | i
COC(=O)c1ccc(S(=O)(=O)N2CCCSCC2CN2CCCC2)cc1 (centres undefined) | i
CC(C)(Oc1ccc(Cl)cc1)C(=O)NCC1(c2ccc(F)cc2)CC1 | i
COc1ccc(Br)c(C(=O)N2CCN(c3c(C)nn(-c4ccccc4)c3C)CC2)c1 | i
Cc1[nH]c(=O)[nH]c(=O)c1CCC(=O)Nc1ccc(S(=O)(=O)N(C)c2ccccc2)cc1 | i
COc1ccccc1-c1ccc(N2CCN(C(=O)Nc3cccc(F)c3)CC2)nn1 | i
CC(CCc1ccccc1)NC(=O)c1coc(NC(=O)c2cnccn2)n1 (centres undefined) | i
COc1ccc(C2(CNC(=O)C(=O)Nc3ccc(N4CCCC4=O)c(C)c3)CCCC2)cc1 | i
O=C(Nc1cnc(N2CCN(c3ccccn3)CC2)nc1)c1c(F)cccc1F | i
CSc1ccc(CNC(=O)CSc2nccc(-c3ccc(C)c(C)c3)n2)cc1 | i
CC(C)(C)C(O)CCNS(=O)(=O)c1cccc(F)c1 (centres undefined) | i

Next structures follow:
compound | GIRK2 act
O=C(O)CC(CC(=O)NCC1CCN(C(=O)c2ccccc2F)CC1)c1cccs1 (centres undefined) | i
CCOC(=O)c1ccc(NC(=O)Cn2c(C)cc(C)c(C#N)c2=O)cc1 | i
O=S(=O)(NCCNc1ccc(-n2cccc2)nn1)c1ccccc1 | i
COc1ccccc1C(=O)Nc1nnc(-c2ccco2)o1 | i
Cc1ccc(Cl)cc1N1CCN(S(=O)(=O)N(C)C)CC1 | i
O=C(CCCn1c(=S)[nH]c2cc3c(cc2c1=O)OCO3)N1CCN(c2cccc(Cl)c2)CC1 | i
CC(O)(CNC(=O)c1ccccc1Br)c1ccco1 (centres undefined) | i
Cc1ccc(NC(=O)Cn2cccc(S(=O)(=O)N3CCC(C)CC3)c2=O)cc1F | i
CC1=C(C(=O)OC(C)C)C(c2cccc([N+](=O)[O-])c2)NC(=O)N1 (centres undefined) | i
O=C(COc1ccc(Cl)cc1)N1CCN(c2ccc(-n3cccc3)nn2)CC1 | i
Cc1cc(C(=O)Nc2nc3c(s2)CN(C(=O)CCS(=O)(=O)c2ccccc2)CC3)no1 | i
CCOc1cc(C)c(Cl)cc1S(=O)(=O)N1CCCCC1C (centres undefined) | i
COc1ccccc1N1CCN(S(=O)(=O)c2ccc(F)c(C)c2)CC1 | i
CCc1ccc(-c2nc(=S)c3c([nH]2)Oc2ccc(Cl)cc2C3)cc1 | i
N=C1C(c2nc3ccccc3[nH]2)=C(O)CN1C1CC1 | i
COc1cc(C(=O)Nc2ccc3c(c2)N(C(C)=O)CCC3)cc(OC)c1OC | i
O=C(CN1CCN(c2cccc(Cl)c2)C1=O)N1CCN(c2ccccc2O)CC1 | i
O=c1cc(CN2CCN(C/C=C/c3ccccc3)CC2)c2cc(Cl)c(O)cc2o1 | i
O=S(=O)(NCCC(O)c1ccccc1)c1ccc(F)c(Cl)c1 (centres undefined) | i
O=S(=O)(c1ccccc1)c1nnn2c1nc(N1CCC3(CC1)OCCO3)c1cc(Cl)ccc12 | i
O=C(c1cnccn1)N1CCC(c2cccs2)CC1 | i
O=C(CCCS(=O)(=O)Cc1ccccc1)Nc1nc2c(s1)-c1cccc3cccc-2c13 | i
CC(=O)Oc1ccccc1C(=O)N1CCN(Cc2nnnn2-c2ccc(Cl)cc2)CC1 | i
O=C(c1cc2ccccc2o1)N1CCN(c2ncnc3c2nnn3-c2ccc(F)cc2)CC1 | i
Cc1ccc(NC(=O)Cn2cc(CN3CCOCC3)c(=O)c3ccccc32)cc1 | i
O=C(C1CC1)N1CCCC1CS(=O)(=O)c1ccccc1 (centres undefined) | i
O=C(NCCc1ccncc1)c1ccc(=O)oc1 | i
CCOC(=O)NCc1nc(COc2ccc(OC)cc2)no1 | i
COc1ccc(NC(=O)c2cc(Cl)ccc2Cl)cc1N1CCCC1=O | i
Cc1ccc(-c2cc3c(=O)n(CC(=O)Nc4ccc(C)cc4Cl)ccn3n2)cc1 | i

Brought forward from above: 2 entries; new compounds follow.
compound | GIRK2 act
COc1ccc(NC(=O)c2cc(Cl)ccc2Cl)cc1N1CCCC1=O | i
Cc1ccc(-c2cc3c(=O)n(CC(=O)Nc4ccc(C)cc4Cl)ccn3n2)cc1 | i
Cc1ccc2oc3c(c(=O)c2c1)C(c1ccc(F)cc1)N(C)C3=O (centres undefined) | i
Cc1nc(NCCNS(C)(=O)=O)cc(N2CCCC2)n1 | i
O=C(CN1CCN(C(=O)c2nc3ccccc3s2)CC1)c1cccs1 | i
O=C(CCN1C(=O)c2ccccc2S1(=O)=O)N1CCN(c2ccccc2)CC1 | i
CC1=C(C(=O)OC(C)C)C(c2c(O)ccc3ccccc23)NC(=O)N1 (centres undefined) | i
Cn1c2ccccc2c(=O)c2c(=O)n(Cc3ccco3)c(-c3ccco3)nc21 | i
COC(=O)c1ccc(C(=O)Nc2cccc(-c3ccn[nH]3)c2)cc1 | i
COc1ccc(NC(=O)CN2CCC(C(=O)NCc3nc4ccccc4[nH]3)CC2)c(OC)c1 | i
CSc1ccccc1C(=O)N1CCN(Cc2nc(-c3ccc(F)cc3)cs2)CC1 | i
Cc1c(NC(=O)C(C)n2nc(-c3ccc(F)cc3)ccc2=O)c(=O)n(-c2ccccc2)n1C (centres undefined) | i
COc1ccc(Cl)cc1NC(=O)CN1CCN(c2cccc(C)c2C)CC1 | i
O=C(CCCSc1ccc(F)cc1)Nc1ccc2c(c1)C(=O)NC2=O | i
O=C(CCS(=O)(=O)c1ccccc1)NCC1(c2ccccc2)CCOCC1 | i
O=C(c1cnccn1)N1CCN(c2ccc(-c3noc(C(F)(F)F)n3)cn2)CC1 | i
O=C(Nc1ccccc1-c1ccc(=O)[nH]n1)c1ccc(=O)[nH]c1 | i
O=C(/C=C/c1ccco1)NCC#CCOc1ccc2c(c1)OCO2 | i
Cn1c(=O)c2sccc2n2c(CCC(=O)N3CCN(c4cccc(Cl)c4)CC3)nnc12 | i
O=C(Nc1ccc2c(c1)OCCO2)c1c2c(nn1C1CCS(=O)(=O)C1)CCC2 (centres undefined) | i
CCCOc1ccc(C2c3c(oc4ccccc4c3=O)C(=O)N2CCN(C)C)cc1OC (centres undefined) | i
O=C(NCCc1ccsc1)c1ccc(-n2cccc2)cc1 | i
O=C(CCc1csc(NC(=O)c2cccs2)n1)Nc1ccc(OC(F)(F)F)cc1 | i
CCCCOc1ccc(C(=O)N2CCN(c3ncnc4c3nnn4-c3ccc(OC)cc3)CC2)cc1 | i
O=C(Cn1nc2c(SC3CCCCC3)nccn2c1=O)NCc1cccs1 | i
COc1ccc2c(=O)c3c(oc2c1)C(=O)N(CCN(C)C)C3c1cccc([N+](=O)[O-])c1 (centres undefined) | i
Cc1cc(C(=O)Nc2nc(C(=O)Nc3ccc4sc(C)nc4c3)co2)c(C)o1 | i
O=C(NCCCS(=O)(=O)N1CCN(c2ccccn2)CC1)c1ccc(Br)o1 | i
CS(=O)(=O)N1CCC(c2nn(CC(=O)OCc3ccccc3)c(=O)n2-c2cccs2)CC1 | i
Cc1nc2ccccn2c1C(=O)N1CCOC(c2ccccc2)C1 (centres undefined) | i
Cc1ccc(Oc2nccn3c(=O)n(CC(=O)N4CCN(c5ccc(F)cc5)CC4)nc23)cc1 | i
COCCCn1c(C(=O)Nc2ccc3c(c2)OCO3)cc2c(=O)n3ccccc3nc21 | i

Sorted by count of non-hydrogen atoms (descending): part of the list above.
compound | GIRK2 act
CSc1ccccc1C(=O)N1CCN(Cc2nc(-c3ccc(F)cc3)cs2)CC1 | i
O=C(NCCCS(=O)(=O)N1CCN(c2ccccn2)CC1)c1ccc(Br)o1 | i
O=C(CN1CCN(C(=O)c2nc3ccccc3s2)CC1)c1cccs1 | i

The listing continues.
compound | GIRK2 act
Cc1cc(=O)[nH]c(-n2nc(-c3ccco3)cc2NC(=O)c2ccc(OC(C)C)cc2)n1 | i
COc1ccc(CCNC(=O)Nc2ccc3c(c2)OCC(C)(C)C(=O)N3C)cc1 | i
Cc1cn2c3c(=O)n(C)c(=O)n(C)c3nc2n1CCN1CCN(Cc2cccc(Cl)c2)CC1 | i
CCOc1ccc(NC(=O)C2CCN(c3ccc(-c4ccco4)nn3)CC2)cc1 | i

Reformatted: four of the compounds above
GIRK2 act | Molecule
i | Cc1cc(=O)[nH]c(-n2nc(-c3ccco3)cc2NC(=O)c2ccc(OC(C)C)cc2)n1
i | COc1ccc(CCNC(=O)Nc2ccc3c(c2)OCC(C)(C)C(=O)N3C)cc1
i | Cc1cn2c3c(=O)n(C)c(=O)n(C)c3nc2n1CCN1CCN(Cc2cccc(Cl)c2)CC1
i | CCOc1ccc(NC(=O)C2CCN(c3ccc(-c4ccco4)nn3)CC2)cc1

Screens deposited in PubChem BioAssay by Vanderbilt University.

Not all compounds are listed (hit frequency here may not be typical).
